# High-throughput results as filed in PubChem.
# CSC inhib: blocks cancer stem cells. 1.1% of 300,000 active. cancer stem cell-like cells viability, luminescence. AID 2717. inhibition, % at 7.5 µM;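 active means mean at 75% or more and at least half the replicates too; inconclusive means mean and replicates disagree; tested in HMLE shEcad cells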;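 further: 0% = median of negative and 100% = median of positive control wells; the first replicate is given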
# Env fusion inh: inhibitors of HIV Env-mediated cell fusion. AID 651610. inhibition, % at 12.3 µM. HeLa-JRFL Env/CEM21 cell fusion, luciferase. 1.1% of 360,000 active;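 active means mean replicate inhibition score of at least 50 and every replicate individually at or above 50; inconclusive means only one of the two criteria met; inactive means mean below 50 and not all replicates reaching 50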;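 further: 0% = plate neutral controls and 100% = maraviroc near 300 nM; one replicate is shown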
# Yeast UUG start: yeast start codon fidelity modulation; activity score, % at 18.7 µM; AID 602363; 0.13% of 350,000 active; S. cerevisiae UUG-firefly luciferase reporter, luminescence/redox ratio;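 active means replicate mean at a twofold rise or more, about +100% in these data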;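 further: firefly luciferase made from a UUG start codon reports start codon fidelity; reporter light over untreated wells divided by growth signal over untreated wells; some hits fall short of that in this replicate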
# eIF4H inh: inhibitors of RNA binding by human eIF4H. 0.94% of 290,000 active. inhibition, % at 35 µM. AID 2012. eIF4H fluorescence polarization binding assay. Q15056;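 active means 50% or more with normal probe brightness, or confirmed in later tests; inconclusive means above 50% with abnormal brightness, or retests that disagree; inactive means below 50% or failed in later tests; about a fifth of its hits are not listed in these tables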;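 further: calls also rest on retests at 20 µM and on dose response follow-up; 0% = protein and probe with vehicle and 100% = probe without protein; strong numbers were not always called active; many hits fall short of the cut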
# Rce1 inh: yeast Ras-converting enzyme inhibition; Q03530; yeast membranes, quenched prenylated peptide cleavage fluorescence; calls only; 0.27% of 290,000 active; AID 2563;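 active means fall in fluorescence gain of 50% or more versus controls, with final raw signal at or below 3038400; inconclusive means same 50% fall but final raw signal above 3038400; inactive means fall in fluorescence gain under 50%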;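 further: plate controls were neutral control wells for no effect and wells lacking membranes for full effect; tested at 10 µM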
# Target sequence (Q03530 whole entry, looked up): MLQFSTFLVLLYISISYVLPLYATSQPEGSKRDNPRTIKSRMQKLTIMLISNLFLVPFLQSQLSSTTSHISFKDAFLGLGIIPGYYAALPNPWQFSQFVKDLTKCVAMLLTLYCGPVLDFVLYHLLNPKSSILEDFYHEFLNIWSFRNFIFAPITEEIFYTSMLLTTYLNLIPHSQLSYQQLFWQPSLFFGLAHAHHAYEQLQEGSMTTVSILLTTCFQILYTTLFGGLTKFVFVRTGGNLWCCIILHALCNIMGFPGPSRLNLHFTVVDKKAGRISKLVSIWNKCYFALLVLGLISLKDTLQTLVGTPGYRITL
# MT1-MMP act inh: blocks activation of human MT1-MMP | P50281 | HT1080 RFP-PRO-GFP cells, GFP/RFP ratio fluorescence, overnight; percent of plate control window, DMSO zero | GFP/RFP ratio change, % at 20 µM | 0.061% of 360,000 active | AID 651647;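 active means GFP/RFP ratio change of at least 30% with cell ATP level not reduced by more than half and red fluorescence within 50% of control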; further: strong numbers were not always called active
#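 Assay system: HT1080 RFP-PRO-GFP cells | Dosing: 20 µM single dose, 1% DMSO | Incubation: Cells overnight before dosing, compound overnight, 37 °C, 5% CO2 | Evaluation: GFP/RFP fluorescence ratio | Control set: DMSO-only wells and HT1080 RFP-L50D-GFP cell wells as references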
# PABP FP inh: PABP-poly(A) binding inhibition; P11940; PABP-poly(A) RNA binding, fluorescence polarization; inhibition, % at 35 µM; 1% of 290,000 active; AID 2014;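 active means 50% or more with normal probe brightness, or confirmed in later tests; inconclusive means above 50% with abnormal brightness, or retests that disagree; inactive means below 50% or failed in later tests; about a fifth of its hits are not listed in these tables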;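 further: calls also rest on retests at 20 µM and on dose response follow-up; controls were probe without protein and protein plus probe with vehicle; some compounds called inactive have numbers as strong as hits; many hits fall short of the cut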
# Target sequence (P11940 whole entry, looked up): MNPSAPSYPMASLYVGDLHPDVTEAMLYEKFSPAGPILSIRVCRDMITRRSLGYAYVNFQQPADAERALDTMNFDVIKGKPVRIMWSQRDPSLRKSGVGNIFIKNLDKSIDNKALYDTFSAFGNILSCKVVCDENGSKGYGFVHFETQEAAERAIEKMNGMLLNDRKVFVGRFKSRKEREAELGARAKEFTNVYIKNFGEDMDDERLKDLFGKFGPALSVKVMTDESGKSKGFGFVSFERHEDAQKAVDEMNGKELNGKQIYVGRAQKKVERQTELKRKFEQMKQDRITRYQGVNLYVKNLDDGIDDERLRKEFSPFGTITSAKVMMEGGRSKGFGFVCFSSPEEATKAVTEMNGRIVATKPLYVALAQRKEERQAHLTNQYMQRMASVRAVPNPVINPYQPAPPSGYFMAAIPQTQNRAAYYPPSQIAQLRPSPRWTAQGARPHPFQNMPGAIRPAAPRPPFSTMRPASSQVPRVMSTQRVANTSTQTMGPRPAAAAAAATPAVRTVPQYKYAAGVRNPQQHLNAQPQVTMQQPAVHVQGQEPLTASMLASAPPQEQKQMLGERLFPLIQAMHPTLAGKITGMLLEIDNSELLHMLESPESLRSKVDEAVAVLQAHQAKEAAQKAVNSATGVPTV
# MT1-MMP act inh RFP: also measured in MT1-MMP act inh; calls as there; RFP signal change, %; measured here: RFP expression control read;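 0 = vehicle wells; hits needed this value within 50% of zero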
# * hit, by the source's call; i = inactive; ? = inconclusive; . = not tested or not shown; & = joins results of further samples.
SMILES,CSC inhib,Env fusion inh,Yeast UUG start,eIF4H inh,Rce1 inh,MT1-MMP act inh,MT1-MMP act inh RFP,PABP FP inh
CCOC(=O)c1c(NC(=O)COC)sc(C(C)=O)c1C,-1,-62,-15,9,i,-3,-1,-7
O=C(CSc1ncccc1C(=O)O)Nc1ccc2c(c1)OCCO2,.,7,-29,-10,i,-2,-1,-14
Cc1cc(OCC(=O)N2CCN(c3cccc(Cl)c3)CC2)c2c(C)c(C)c(=O)oc2c1,-17,15,4,-7,i,4,-4,-3
O=S(=O)(/C=C/c1ccccc1)Nc1cccc(S(=O)(=O)NC2=NCCC2)c1,24,2,.,-4,i,-1,3,-8
Cc1cccc(CC(=O)NCCN2CCCCC2)c1,-1,-40,-5,7,i,-1,1,0
Brc1ccc(-c2nnc(-c3ccc4c(c3)OCO4)o2)o1,-21,-126,-10,-2,i,-1,0,3
CCCCCC(=O)N[C@@H](c1ccccc1)[C@@H](O)C(=O)O[C@H]1C[C@@]2(O)[C@@H](OC(=O)c3ccccc3)C3[C@](C)(C(=O)[C@H](OC(C)=O)C(=C1C)C2(C)C)[C@@H](O)C[C@H]1OC[C@@]31OC(C)=O (stereo partly drawn),56,.,9,-6,i,1,-11,8
CC(C)C(=O)Nc1cccc(C(=O)Nc2ccccc2C(=O)O)c1,10,-30,-3,4,i,0,4,9
CCOC(=O)c1sc2nc3n(c(=O)c2c1C)CCCCC3,-5,.,-13,0,i,4,-2,6
Cc1ccc(NC(=S)N2CCOCC2)cc1,-4,4,.,7,i,-1,2,8
O=C1c2ccccc2C(=O)N1Nc1ccc([N+](=O)[O-])cc1[N+](=O)[O-],13,0,0,1,i,4,2,-13
COc1ccc(-c2cc(=O)oc3cc(OCC(=O)N4CCOCC4)ccc23)cc1,.,-14,.,5,i,0,5,-7
OCc1cc(CO)c(O)c(CCc2ccccc2)n1,-16,-33,-25,0,i,3,4,9
c1ccc(-c2nnc(N3CCOCC3)nc2-c2ccccc2)cc1,10,27,-4,-7,i,-3,0,0
O=[N+]([O-])CC(c1ccccc1)P(=O)(c1ccccc1)c1ccccc1 (stereo not drawn),6,15,3,5,i,-2,2,3
CCOc1cc(NC(=S)NCCCN2CCOCC2)c(OCC)cc1NC(=O)c1cccc(F)c1,-3,-7,.,-13,i,-1,-4,0
Cc1ccc(S(=O)(=O)N2CCOCC2)cc1C(=O)N(C)CCOc1ccc(Cl)cc1,-17,29,10,0,i,-2,-16,0
CCOC(=O)c1cccc(NC(=O)CCn2nc(C)c(S(=O)(=O)N3CCCCC3)c2C)c1,-3,29,-8,-13,i,3,-2,9
CCCCn1c(=O)[nH]c2nc3cc(N)ccc3nc2c1=O,12,-10,-32,?,.,-168,4,17
O=C(c1cccc(S(=O)(=O)NCc2ccc3c(c2)OCO3)c1)N1CCCC1,.,25,-4,.,.,0,1,.
O=C(COC(=O)c1ccc(Cl)c([N+](=O)[O-])c1)NC1CCCC1,-10,19,3,-1,i,-1,0,5
COCCn1c(C)cc(C(=O)COC(=O)CCN2C(=O)c3ccccc3C2=O)c1C,1,10,4,7,i,2,0,3
O=C1c2ccccc2C(Nc2cccc(C(F)(F)F)c2)N1Cc1ccco1 (stereo not drawn),5,29,1,-5,.,-3,-12,-5
O=C(O)c1ccccc1Cc1ccc(F)c2ccccc12,.,-15,0,.,.,-1,0,.
Cc1ncc(CO)c2c1Oc1nc(-c3ccccc3)nc(SCC(=O)N(C)c3ccccc3)c1C2,.,3,.,0,i,.,.,5

# Next section.
SMILES,CSC inhib,Env fusion inh,Yeast UUG start,eIF4H inh,Rce1 inh,MT1-MMP act inh,MT1-MMP act inh RFP,PABP FP inh
Cc1ccc(CN2CC(C(=O)N3CCN(S(=O)(=O)c4cc(C)ccc4C)CC3)CC2=O)cc1 (stereo not drawn),-22,16,24,.,i,-3,-5,.
CCN(CC)c1nc(C#N)nc(N(CC)CC)n1,.,12,-10,-3,i,0,0,-2
COc1ccc(CCNC(=O)C2c3ccccc3C(=O)N2CCC(C)C)cc1OC (stereo not drawn),-5,0,-10,8,i,-1,0,11
COCCCN1C(=O)C(=O)/C(=C(/O)c2ccc(S(=O)(=O)N3CCOCC3)cc2)C1c1ccc(C)cc1 (stereo not drawn),-3,-18,-29,15,i,0,6,13
O=C1CCCc2c1cc(C(=O)Nc1ccc(Cl)cn1)c(=O)n2-c1ccccc1,7,7,5,2,i,-7,-2,6
O=S(=O)(c1ccc(NC(=S)N/N=C/c2c3ccccc3cc3ccccc23)cc1)N1CCOCC1,7,23,.,11,i,-12,2,18
CCC(Sc1ncnc2c1nnn2-c1ccc(F)cc1)C(=O)OC (stereo not drawn),-8,.,-8,-1,i,6,-3,4
CC1CCc2c(sc(NC(=O)c3ccccc3C(=O)O)c2C#N)C1 (stereo not drawn),-1,-12,.,-4,i,-2,0,4
O=C(COc1ccc(Cl)cc1Cl)N(c1ccccn1)C1CCCCC1,-6,9,.,-5,i,3,-7,-7
CCC(CC)c1nnc(NC(=O)CS(=O)(=O)Cc2ccccc2)s1,-11,.,16,.,i,1,1,.
CC(C)CC(NC(N)=O)C(=O)NCc1ccc(Cl)cc1 (stereo not drawn),-11,-1,-15,-4,i,-1,2,-1
COc1cccc(CN2CC(C(=O)N3CCN(c4ccc(Cl)cc4)CC3)CCC2=O)c1 (stereo not drawn),-2,4,9,7,i,5,-6,2
Cc1nc(Cc2nnc(SCC(=O)N(C)c3ccccc3)o2)cs1,-4,0,-15,.,i,-1,-5,.
Cc1cc(OC(C)C)c2c(-c3ccccc3)cc(=O)oc2c1,50,.,.,1,i,-7,-6,6
COc1ccc(CCNC2=NCCS2)cc1OC,-16,-13,.,2,i,-2,0,1
CC(C)[C@H](NC(=O)C1CCN(S(=O)(=O)c2ccccc2)CC1)C(=O)NCc1ccco1,-17,-9,-8,5,i,-2,1,0
O=C(Nc1ccccc1)N1CCNCC1,-8,4,-25,5,i,4,3,-5
Cc1cc(NC(=O)c2cc(-c3ccc(O)cc3)on2)no1,25,-39,-12,-6,i,0,2,-3
COc1ccc(/C=N/NC(=O)c2[nH]nc3c2CCc2ccccc2-3)cc1OC,35,-21,.,-12,i,9,-6,-15
Cc1cc(OC(C)C(=O)NCC2CCC(C(=O)O)CC2)c2c(C)cc(=O)oc2c1 (stereo not drawn),-11,.,-24,4,.,4,6,-8
COc1ccc(NS(=O)(=O)c2cccc(NC(=O)CCS(=O)(=O)c3ccccc3)c2)cc1,.,31,.,-10,i,2,-10,-4
CCOc1ccc(NC(=O)CC2C(=O)N(c3ccc(OC)cc3)C(=S)N2Cc2ccccn2)cc1 (stereo not drawn),1,-10,-13,9,i,8,1,-4
C/C(=N\NC(=O)c1cccc([N+](=O)[O-])c1)c1ccncc1,-6,6,.,8,i,4,3,10
CCN(CC(=O)Nc1c(F)cccc1F)C(=O)c1ccc2ncsc2c1,-6,2,.,.,i,-1,2,.
C=CCNC(=O)CN(Cc1ccccc1)S(=O)(=O)c1ccc(C)cc1,-8,-5,-7,1,i,-2,1,8

# Going on with the list:
SMILES,CSC inhib,Env fusion inh,Yeast UUG start,eIF4H inh,Rce1 inh,MT1-MMP act inh,MT1-MMP act inh RFP,PABP FP inh
Cc1cccc(-n2cnc(C(=O)N/N=C/c3ccccc3)c2)n1,-7,.,-23,4,i,-4,3,-7
COc1ccc([N+](=O)[O-])cc1NC(=O)C(C)OC(=O)CSC(C)C(=O)Nc1cc(C)on1 (stereo not drawn),-15,-180,-22,.,i,6,2,.
O=C(Nc1ccon1)c1ccc(Cl)c(S(=O)(=O)N2CCCCC2)c1,12,19,-10,-11,i,0,-10,4
O=c1oc2ccccc2c(N2CCOCC2)c1[N+](=O)[O-],-9,-5,.,1,i,-9,5,-3
Cc1ccc(-c2nc3sc4c(N)ncnc4c3c3c2CCCC3)cc1,-5,3,-2,-4,i,4,2,7
Cc1ccc(S(=O)(=O)NNC(=O)c2cc3cc4ccccc4nc3s2)cc1,6,-193,-12,4,i,-2,-4,-5
CCCNC(=S)N1CCN(Cc2ccc3c(c2)OCO3)CC1,-9,1,1,11,i,1,2,9
CCOc1cc(C(=O)OC(C)C(=O)Nc2ccc(NC(C)=O)cc2)ccc1OCC(=O)N1CCCCC1 (stereo not drawn),-7,-6,-1,-7,i,-3,0,1
Cc1cc(C)n(C(=O)c2ccc(S(=O)(=O)NCC3CCCO3)cc2)n1 (stereo not drawn),6,.,0,-3,i,4,4,15
COc1ccc(C(=O)CC(Nc2ccc([N+](=O)[O-])cc2)c2ccc(OC)cc2)cc1 (stereo not drawn),16,14,-17,-4,i,3,-1,-3
O=C(CCCOc1ccc(Cl)cc1Cl)NN1CCOCC1,11,-1,.,-1,i,6,5,2
O=C(OCn1ncc(Br)c(Br)c1=O)c1ccc(F)cc1,-43,.,-10,-1,i,-35,-41,1
CCCN1CCC(=O)N([C@H](CSc2ccccc2)c2ccccc2)CC1,8,-85,-16,-11,i,4,1,9
OC(c1ccc(F)c(F)c1)c1nc(-c2cnc3ccccc3c2)cs1 (stereo not drawn),.,-24,-24,.,.,-3,-8,.
COc1ccccc1C(c1nnnn1CS(=O)(=O)c1ccc(C)cc1)N1CCSCC1 (stereo not drawn),-10,.,-16,1,i,-3,-1,-9
Cc1cc(C)n2nc(C(=O)OC(C)C(=O)c3ccccc3)nc2n1 (stereo not drawn),-12,-15,6,.,i,-1,3,.
COc1ccc(S(=O)(=O)Cc2ccc(C(=O)N3CCN(C(=O)c4ccco4)CC3)o2)cc1,-6,4,-6,-6,i,-4,6,3
O=C(Cn1ncc2c3ccccc3n(Cc3ccccc3)c2c1=O)N1CCN(c2ncccn2)CC1,-5,.,.,-2,i,5,1,-7
O=C(NCc1ccco1)C1CCCN(S(=O)(=O)c2cc(Cl)ccc2Cl)C1 (stereo not drawn),8,1,-12,-4,i,2,-3,-4
c1ccc2c(c1)CC(N1CCCCC1)c1ccccc1N2 (stereo not drawn),-3,.,-18,2,i,3,4,-3
CC(C)N(Cc1cnn(C)c1)Cc1nc(Cc2ccccc2Cl)no1,-4,1,.,-1,i,-4,-1,-1
CC(C)Cc1nc(N2CCN(C(=O)C(C)C)CC2)c(C#N)c2c1CCC2,5,-8,-6,1,i,-6,-14,5
COc1cccc(NC(=O)C(Sc2nc3ccccc3c(=O)n2CC(C)C)c2ccccc2)c1 (stereo not drawn),.,-13,.,4,i,1,1,11
C/C(=N/NC(=O)c1ccccn1)c1c[nH]c2ccccc12,4,-48,-28,-4,i,4,-3,3
c1cn2c(NC3CCCCC3)c(-c3ccc(SC4CCCCC4)cc3)nc2cn1,126*,-8&29,-18,.,i,-36&-6,-13&-7,.
CCC(=O)c1ccc(OCC(=O)Nc2ccc3nc(C)sc3c2)cc1,-18,5,-17,-9,i,7,3,-2
CCOc1ncccc1C(=O)NCC(c1ccccc1)N(C)C (stereo not drawn),-17,-9,-3,1,i,-1,4,2
Cc1ccc(NC(=O)c2ccc3c(=O)n4c(nc3c2)CCCCC4)nc1,-15,2,-12,.,i,6,-3,.
O=C(COc1ccccc1)NNc1nc2c(F)cccc2s1,-1,11,.,9,i,5,7,-5

# Compound profiles, as listed above.
# CC(C)N(Cc1cnn(C)c1)Cc1nc(Cc2ccccc2Cl)no1 is listed as CSC inhib: -4; Env fusion inh: 1; Yeast UUG start: .; eIF4H inh: -1; Rce1 inh: i; MT1-MMP act inh: -4; MT1-MMP act inh RFP: -1; PABP FP inh: -1
# COc1cccc(NC(=O)C(Sc2nc3ccccc3c(=O)n2CC(C)C)c2ccccc2)c1 (stereo not drawn) is listed as CSC inhib: .; Env fusion inh: -13; Yeast UUG start: .; eIF4H inh: 4; Rce1 inh: i; MT1-MMP act inh: 1; MT1-MMP act inh RFP: 1; PABP FP inh: 11
